# CapD inh – blocks the Bacillus anthracis CapD enzyme; hit rate 0.23% among 140,000; z-score (no concentration beside the values); AID 492967; purified CapD enzyme, fluorescence intensity read-out; stronger effect = lower value; some hits fall short of the stated cut;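 active means z-score under -4 in either of two replicates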;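 further: stock transfer was 100 nL into about 40 µL; score is relative to mean and spread of the plate; one replicate is shown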
# AID504770 – E. coli YBA685 growth inhibition, screen for V. cholerae RctB inhibitors. AID 504770. hit rate 0.27% among 130,000. z-score (concentration not given with the values). E. coli YBA685 rctB-dependent plasmid, OD600 growth, 3 h; stronger effect = lower value;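 active means z-score under -2 on both plates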;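 further: wells of about 30 µL received 100 nL stock; score is relative to mean and SD of the test wells; the first replicate is given; strong numbers were not always called active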
# * = called active by the depositor; i = inactive; x = not tested or not shown; & = joins results of further samples. Only part of the results is shown; rates above refer to the full screens.
SMILES,CapD inh,AID504770
N#CSCc1ccc(C#N)cc1,0.52,-1
CCN(CC)c1ccc(-c2cc(C#N)on2)cc1,-0.75,-0.25
CCCCS(=O)(=O)Nc1cccc(Cl)c1,0.58,-0.8
COC(OC)(C(=O)c1ccccc1)c1ccccc1,-0.53,-0.2
N#Cc1c(-c2ccccc2)cc(-c2ccccc2)nc1SCC(=O)N1CCOCC1,0.86,x
CCn1cc(C(=O)OCC(=O)N(C)Cc2ccccc2)c(=O)c2ccc(C)nc21,x,0.95
O=C1c2ccccc2C(=O)c2oc(-c3ccc(F)cc3)nc21,-0.82,0.15
CCn1c2ccc(F)cc2c2nc(C)sc21,0.63,-0.7
COC(=O)c1ccc(COc2ccc(/C=N/NC(N)=O)cc2)o1,x,-0.5
NC(=O)C1CCN(C(=O)CCc2nc3ccccc3n2-c2ccccc2)CC1,x,-0.4
COCCOC(=O)C1=C(C)NC(=O)NC1c1cn(-c2ccccc2)nc1-c1ccc(OC)cc1 (centres undefined),0.69,x
CC(NC(=O)c1ccc(C(C)(C)C)cc1)C(=O)O (centres undefined),-0.76,-0.7
Cc1cccc(-n2nc3c(c2NC(=O)c2ccc(S(=O)(=O)N4CCOCC4)cc2)CS(=O)(=O)C3)c1C,-0.32,x
COCCn1c(=O)c(=O)n(Cc2cccc(C(F)(F)F)c2)c2cc(C(F)(F)F)ccc21,3.5,x
C=CC[n+]1c(-c2ccccc2)csc1NC(C)(C)C,i,0.75
CC(=O)Nc1nc(C)c(Oc2cccc(C(F)(F)F)c2)c(=O)[nH]1,0.29,-0.6
O=C(CCCn1ncn2c(cc3occc32)c1=O)N1CCCCC1,0.39,-0.6
O=C(c1cccs1)N1CCc2c([nH]c3ccccc23)C1c1ccc2c(c1)OCO2 (centres undefined),-0.06,x
O=C(NC1CCCC1)c1ccc2c(=O)n3c(nc2c1)CCCCC3,0.88,0.1
N#Cc1ccc(Oc2ccccc2)nc1,0.8,0.25
N#CCCn1cc(/C=N/n2c(=O)[nH]c3ccccc3c2=O)c(-c2ccc(F)cc2)n1,x,-0.4
CS(=O)(=O)c1cnc(-c2cccnc2)nc1-c1cccc(C(F)(F)F)c1,-0.32,x
COc1ccc(C2N3CCCN23)cc1 (centres undefined),-0.99,1.2
Cc1sc2nc(C)n(C3CCN(CC(=O)NCC4CC4)CC3)c(=O)c2c1C,x,0.2
Cc1nnc(NC(=O)C(C)Oc2ccc(Cl)c(C)c2)s1 (centres undefined),1.1,0.65

# (further entries)
SMILES,CapD inh,AID504770
Cc1ccc(NC(=O)CSC2=C(C#N)C(c3ccc(C(C)C)cc3)CC(=O)N2)cc1C (centres undefined),-0.62,x
Fc1ccc(CSc2nnc(-c3sccc3-n3cccc3)o2)cc1,0.22,x
CC1CC(C)CN(c2nnc(NC(=O)c3cc(-c4ccc(Br)cc4)on3)s2)C1 (centres undefined),-0.065,-0.05
CN(C)c1nc(Nc2ccc(F)cc2)nc(Oc2ccc(F)cc2)n1,0.39,0.55
CC(NC(=O)c1ccccc1F)C1CC1 (centres undefined),x,-0.15
COc1nc(-c2ccc(Cl)cc2Cl)nc2ccccc12,0.67,-0.2
O=c1c2cnc3c(Cl)cccc3c2nc2sccn12,2.2,x
C(#Cc1ccc(-c2ccn[nH]2)s1)c1ccccc1,53,-0.6
COc1ccc(CCNC(=O)OCCCCc2ccccc2)cc1,0.21,x
NC(=O)CN1CCN(c2ccc(Cl)cc2)CC1,-0.71,-0.7
COc1cc(Br)c(CN2CCCC(COC(=O)NNC(=O)COc3cccc4c3OC(C)(C)C4)C2)cc1OC (centres undefined),-0.025,x
CSCCC1(C(=O)O)NC(c2ccccc2O)C2C(=O)N(c3ccc(Br)cc3)C(=O)C21 (centres undefined),0.2,x
Cc1ccccc1OCC(=O)Nc1ccc(NC(=O)c2ccco2)cc1,-1,1.2
Nc1cc(N)nc(SC(C(=O)N2CCCCC2)c2ccccc2)n1 (centres undefined),x,-0.6
Cc1ccc(-n2sc(=NC(=Nc3ccccc3)c3ccccc3)nc2-c2ccccc2)cc1,-0.025,x
COc1ccc(-c2nonc2NC(=O)COc2ccccc2)cc1,-0.29,1.7
CCCc1c2c(cc3c(=O)cc(C(=O)OCC)oc13)CCCC2,0.61,x
C=CCSc1nnc(CCc2nnc(SCC=C)n2-c2ccccc2)n1-c1ccccc1,x,-1
COc1cc(C2N(c3ccccc3)CCN2c2ccccc2)cc(OC)c1OC,-0.045,-0.55
Cc1cccc(-c2nc3ccccc3c(=O)n2OC(=O)c2cccc(Cl)c2)c1,-0.06,x
CCC1SC(CC)C(=O)N(CC(=O)NCCc2ccccc2)C1=O (centres undefined),0.45,-0.1
O=c1c2ccccc2ncn1-c1ccc(F)cc1,x,0
N#C/C(=N\Nc1ccc(C(F)(F)F)cc1)C(=O)C1CC1,-1.7,x
Cc1nc(SCC(=O)c2cc(C)n(-c3ccccc3)c2C)c2ccsc2n1,-0.41,2
Cc1ncc(CO)c(CNc2ccccc2)c1O,-0.86,-0.8

# An excerpt from above in order of length of the SMILES, smallest number first.
SMILES,CapD inh,AID504770
Fc1ccc(CSc2nnc(-c3sccc3-n3cccc3)o2)cc1,0.22,x
COc1cc(C2N(c3ccccc3)CCN2c2ccccc2)cc(OC)c1OC,-0.045,-0.55
CC1CC(C)CN(c2nnc(NC(=O)c3cc(-c4ccc(Br)cc4)on3)s2)C1 (centres undefined),-0.065,-0.05

# Other records.
SMILES,CapD inh,AID504770
Cc1cc(C)c(C)c(C(=O)O)c1C,-0.15,0
CC1(C)CC2CC(C)(CN2C(=O)Nc2ccc3snnc3c2)C1 (centres undefined),0.06,0.25
O=C1CN(C(=O)/C=C/c2ccc(Cl)cc2)c2ccccc2N1,x,-0.45
O=C1/C(=C/c2ccc(-c3cc(Cl)ccc3Cl)o2)C=C(c2ccccc2)N1c1ccc(O)cc1,-0.39,x
O=S(=O)(c1ccccc1)N1CCC(n2cnc3ccccc32)CC1,x,0
CCc1ccc(N=CC23c4ccccc4C(c4ccccc42)C2C(=O)N(c4ccccc4[N+](=O)[O-])C(=O)C23)cc1 (centres undefined),-0.18,x
CCCCN1CC(C(=O)NCCc2ccc(Cl)cc2)CC1=O (centres undefined),1.7,-0.8
O=C(OCc1ccccc1)Oc1cncc(C(=O)O)c1,-1.4,-1.2
COc1ccc(N2CCN(CCCNC(=O)C3CCN(S(=O)(=O)N4CCOCC4)CC3)CC2)cc1,0.1,-0.45
CSc1nsc(SCCN2C(=O)c3ccccc3C2=O)n1,0.77,0.65
COc1ccc(/C=C2\SC(=S)N(CCC(=O)N3CCN(c4ccccc4)CC3)C2=O)cc1OC,-0.24,x
CN1C(=O)N(S(=O)(=O)c2ccc(F)c(F)c2F)C(=O)C1(C)C,x,0.05
FC(F)(F)c1ccc(CSc2ccccn2)cc1,0.21,0.2
CC1CC(=O)Nc2ccccc2N1C(=O)c1ccco1 (centres undefined),0.35,0.05
C=CCOC(Cn1ccnc1)c1ccc(Cl)cc1Cl (centres undefined),2.5,x
COc1cc(OC)c(OC)cc1/C=N/NC(=O)c1cc2ccccc2cc1O,0.26,x
COc1ccc(-c2nn(C)c(=O)[nH]2)cc1,-0.03,-0.25
CCOCCn1c(=NC(=O)C(C)(C)C)sc2cc(S(C)(=O)=O)ccc21,x,-0.5
COC(=O)CSC(C)C(=O)N1CCc2cccc(S(=O)(=O)N(C)C)c21 (centres undefined),0.14,x
CN1CCc2cc3c(cc2[C@H]1[C@@H]1OC(=O)c2c1ccc1c2OCO1)OCO3,0.47&-0.01,x
COC(=O)c1ccc(Oc2ncnc3scc(-c4ccccc4)c23)o1,9.3,-0.4
c1ccc(SCCNC2=NCCCS2)cc1,x,0.7
O=C1NC(=O)C(CC(=O)N2CCCCC2)N1 (centres undefined),x,2.2
CC(C(=O)Nc1ccc(Br)cc1)N1CCN(S(=O)(=O)c2ccccc2)CC1 (centres undefined),x,-0.2
CC(C)(C)c1ccc2c(c1)N(CC(=O)O)C(=O)CO2,-0.15,-0.65

# Going on with the list.
SMILES,CapD inh,AID504770
N=C1c2ccccc2CN1c1ccc(S(=O)(=O)N2CCCCC2)cc1,x,0.05
CN(C)c1nc(Oc2ccc(OCCOc3ccccc3)nn2)nc(N(C)C)n1,-0.38,x
N=c1n(CC(=O)c2ccc(Cl)c(Cl)c2)c2ccccc2n1Cc1ccccc1,10,-0.45
CC1=NN(c2ccccc2)C(=O)/C1=C1/C(=O)N(c2ccccc2)N=C1C,-1.6,0.3
CC(C)N(Cc1cc2ccccc2[nH]c1=O)C(=O)c1ccncc1,x,-1.1
COCc1nc(-c2ccccn2)[nH]c(=O)c1C,-0.15,1.1
CC(C)(C)c1ccc(OCCC(=O)O)cc1,x,0.05
CCc1nc(NCC(C)C)c(C#N)c2c1CCCC2,-0.28,0.8
COc1ccc(C2C(C(=O)c3cccs3)=C(O)C(=O)N2CCCN(C)C)c(OC)c1 (centres undefined),-0.48,1.2
COc1ccc(S(=O)(=O)Nc2ccccc2-c2nnc(-c3ccc(Cl)cc3)o2)cc1OC,-0.65,x
O=C(c1cc2sccc2n1Cc1ccccc1)N1CCN(Cc2ccc3c(c2)OCO3)CC1,x,-0.15
CC(C)(C)S(=O)(=O)c1cccc2ccccc12,x,0.15
O=c1oc(-c2ccc(F)cc2)nc2ccccc12,x,-0.4
O=C(NC1CCCCC1)NC1CC2CCC(C1)N2C(=O)NCc1ccccc1 (centres undefined),x,-0.2
O=C(Nc1cccc(-c2ncon2)c1)c1cccs1,-0.66,-0.45
Oc1cccc(CN2CCN(C/C=C/c3ccccc3)CC2)c1,-0.34,0.2
NC(=O)COc1ccccc1OCC(N)=O,0.66,0.45
Nc1c(-c2ccccc2)n[nH]c1-c1ccccc1,43,-0.55
CN1CCN(Nc2nc3c(c(=O)[nH]c(=O)n3C)n2Cc2ccc(F)cc2)CC1,x,0.35
COc1ccccc1C1NC(=S)NC(C)=C1C(=O)Nc1ccccc1C (centres undefined),-0.08,x
Cc1cc(-n2c(C)cc(C(=O)CSc3n[nH]c(=O)n3Cc3ccccc3)c2C)no1,x,0.8
COCC(=O)Nc1ccccc1-c1ccccc1,-0.66,1.8
Cc1csc(Cc2nc(-c3ccc(O)cc3)no2)n1,x,-0.35
Cc1cc(NC(=O)CSc2nccn2C)n(-c2ccccc2)n1,-0.67,0.5
O=C(c1ccccc1Cl)N(Cc1ccco1)Cc1cc2cc3c(cc2nc1Cl)OCO3,x,0

# The listing continues:
SMILES,CapD inh,AID504770
CC(O)CNc1nc2ccccc2[nH]1 (centres undefined),1,-0.7
Cc1nc2ccccc2nc1OCC(=O)c1ccc(Cl)cc1,4.2,-0.05
COc1ccc(C(=O)NCCc2c[nH]c3ccc(OC)cc23)cc1,-0.65,-1.1
COP(=O)(OC)C(Nc1cccc2ccccc12)c1ccc(Cl)cc1 (centres undefined),40,x
CC(C)(C)OC(=O)N1CCN(CCNC(=O)c2ccc(Cl)cc2)CC1,0.1,-0.2
CC(=O)n1nc(C)c(Sc2nnnn2-c2ccccc2)c1C,0.25,-0.2
O=C(c1ccc2nc[nH]c2c1)N1CCN(S(=O)(=O)c2ccccc2C(F)(F)F)CC1,x,-0.1
COCc1cc(=O)[nH]c2c1c(C)nn2C,3.7,x
O=c1cc(-c2ccc(O)cc2)oc2ccccc12,12,0.4
Cc1ccc(C)c(NC(=O)COC(=O)c2ccc3c(=O)n4c(nc3c2)CCCCC4)c1,x,0.6
CC(C)(C)Nc1nc(N)c(C(=O)c2ccc(Br)cc2)s1,0.02,x
COc1cccc(C(=O)NC(c2ccco2)c2c(O)ccc3ccccc23)c1 (centres undefined),1.1,-0.2
COc1cc(-c2nc(Cc3c(F)cccc3Cl)no2)cc(OC)c1OC,0.6,x
COc1ccc(CCNS(=O)(=O)c2ccc3[nH]c4c(c3c2)CCCC4)cc1OC,2,-0.9
CC(C)c1cc(C(=O)Nc2ccc(-c3nnc4n3CCCCC4)cc2)c2cnn(C(C)C)c2n1,x,0.05
NC(=O)Cn1c(-c2nonc2N)nc2ccccc21,x,-0.5
Cc1ccc(NC(=O)CCC(=O)c2cccs2)cc1,-0.15,-1.1
O=C(c1cc(-c2ccc(Cl)cc2)nc2ccccc12)N1CCCCC1,0.33,x
COC(=O)C1=NN(C(=O)c2cccc(OC)c2)C(C)(O)C1 (centres undefined),x,1.6
Cc1ccc2cc(CCNC(=O)COc3ccccc3)c(=O)[nH]c2c1,0.59,0.3
CCSC1=C(C#N)C(c2ccc(C(C)C)cc2)C2=C(CCCC2=O)N1 (centres undefined),0.13,-0.6
CC(=O)Nc1ccc(NC(=O)C2CC(=O)N(Cc3ccco3)C2)cc1 (centres undefined),x,1.5
Cc1cc(C(=O)CSC2=C(C#N)C(C)(C)C(C#N)C(=O)N2)c(C)n1-c1ccccc1 (centres undefined),x,0.35
CCOC(=O)Nc1cccc(Sc2nc(C)cc(C)n2)c1,-0.29,x
Cn1c(SCC(=O)c2ccccc2)nnc1C(F)(F)F,11,-0.6

# Another view of 6 compounds above:
compound	CapD inh	AID504770
COc1cc(C2N(c3ccccc3)CCN2c2ccccc2)cc(OC)c1OC	-0.045	-0.55
Cc1cccc(-c2nc3ccccc3c(=O)n2OC(=O)c2cccc(Cl)c2)c1	-0.06	x
CCC1SC(CC)C(=O)N(CC(=O)NCCc2ccccc2)C1=O (centres undefined)	0.45	-0.1
O=c1c2ccccc2ncn1-c1ccc(F)cc1	x	0
N#C/C(=N\Nc1ccc(C(F)(F)F)cc1)C(=O)C1CC1	-1.7	x
Cc1nc(SCC(=O)c2cc(C)n(-c3ccccc3)c2C)c2ccsc2n1	-0.41	2

# Entries of single compounds, quoted from the list.
# `Cn1c(SCC(=O)c2ccccc2)nnc1C(F)(F)F` is entered as CapD inh: 11; AID504770: -0.6
# `COc1cc(-c2nc(Cc3c(F)cccc3Cl)no2)cc(OC)c1OC` is entered as CapD inh: 0.6; AID504770: x
# `Cc1cc(C(=O)CSC2=C(C#N)C(C)(C)C(C#N)C(=O)N2)c(C)n1-c1ccccc1` (centres undefined) is entered as CapD inh: x; AID504770: 0.35

# Bioassay records: PubChem BioAssay, ICCB-Longwood Screening Facility, Harvard Medical School
